Screens: PubChem, several laboratories
MT1-MMP act inh – MT1-MMP (human) activation inhibition; P50281; HT1080 RFP-PRO-GFP cells, GFP/RFP ratio fluorescence, overnight; percent of plate control window, DMSO zero; GFP/RFP ratio change, % at 20 µM; actives 0.061% (n = 360,000);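 active means GFP/RFP ratio change of at least 30% with cell ATP level not reduced by more than half and red fluorescence within 50% of control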; further: strong numbers were not always called active
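Compound: 20 µM single dose, 1% DMSO / System: HT1080 RFP-PRO-GFP cells / Controls: DMSO and RFP-L50D-GFP cell wells / Read-out basis: GFP/RFP fluorescence ratio / Schedule: overnight compound exposure at 37 °C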
eIF4H inh – inhibitors of RNA binding by human eIF4H | eIF4H fluorescence polarization binding assay | actives 0.94% (n = 290,000) | inhibition, % at 35 µM | Q15056;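 active means 50% or more with normal probe brightness, or confirmed in later tests; inconclusive means above 50% with abnormal brightness, or retests that disagree; inactive means below 50% or failed in later tests; about a fifth of its hits are not listed in these tables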;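 further: calls also rest on retests at 20 µM and on dose response follow-up; 0% = protein and probe with vehicle and 100% = probe without protein; strong numbers were not always called active; many hits fall short of the cut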
CSC inhib – blocks cancer stem cells | cancer stem cell-like cells viability, luminescence | inhibition, % at 7.5 µM | actives 1.1% (n = 300,000);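 active means mean at 75% or more and at least half the replicates too; inconclusive means mean and replicates disagree; tested in HMLE shEcad cells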;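 further: 0% = median of negative and 100% = median of positive control wells; the first replicate is given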
Rce1 inh – yeast Ras-converting enzyme inhibition; Q03530; yeast membranes, quenched prenylated peptide cleavage fluorescence; calls only; actives 0.27% (n = 290,000);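 active means fall in fluorescence gain of 50% or more versus controls, with final raw signal at or below 3038400; inconclusive means same 50% fall but final raw signal above 3038400; inactive means fall in fluorescence gain under 50%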;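 further: plate controls were neutral control wells for no effect and wells lacking membranes for full effect; tested at 10 µM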
Target sequence (Q03530 whole entry, looked up): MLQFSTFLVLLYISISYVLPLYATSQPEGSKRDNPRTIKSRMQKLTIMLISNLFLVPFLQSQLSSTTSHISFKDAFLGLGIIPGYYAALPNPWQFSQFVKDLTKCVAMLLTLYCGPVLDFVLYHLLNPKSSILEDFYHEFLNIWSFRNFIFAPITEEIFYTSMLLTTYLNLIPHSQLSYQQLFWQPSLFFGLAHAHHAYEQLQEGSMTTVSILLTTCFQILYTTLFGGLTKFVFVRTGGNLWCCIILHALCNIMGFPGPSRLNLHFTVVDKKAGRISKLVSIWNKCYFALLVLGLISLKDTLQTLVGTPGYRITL
UUG fidelity – alters start codon recognition fidelity in yeast. S. cerevisiae UUG-firefly luciferase reporter, luminescence/redox ratio. activity score, % at 18.7 µM. actives 0.13% (n = 350,000). AID 602363;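 active means replicate mean at a twofold rise or more, about +100% in these data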;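 further: firefly luciferase made from a UUG start codon reports start codon fidelity; reporter light over untreated wells divided by growth signal over untreated wells; some hits fall short of that in this replicate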
PABP polyA inh – blocks human PABP binding to poly(A) RNA; P11940; fluorescence polarization; inhibition, % at 35 µM; actives 1% (n = 290,000);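 active means 50% or more with normal probe brightness, or confirmed in later tests; inconclusive means above 50% with abnormal brightness, or retests that disagree; inactive means below 50% or failed in later tests; about a fifth of its hits are not listed in these tables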;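 further: calls also rest on retests at 20 µM and on dose response follow-up; controls were probe without protein and protein plus probe with vehicle; some compounds called inactive have numbers as strong as hits; many hits fall short of the cut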
Env fusion inh – inhibitors of HIV Env-mediated cell fusion; HeLa-JRFL Env/CEM21 cell fusion, luciferase; inhibition, % at 12.3 µM; actives 1.1% (n = 360,000); AID 651610;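 active means mean replicate inhibition score of at least 50 and every replicate individually at or above 50; inconclusive means only one of the two criteria met; inactive means mean below 50 and not all replicates reaching 50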;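 further: 0% = plate neutral controls and 100% = maraviroc near 300 nM; one replicate is shown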
eIF4H inh retest – also measured in eIF4H inh; calls as there; inhibition, %; compound at 20 µM; confirmation average;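 mean of two retest wells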
PABP polyA inh retest – second read-out of PABP polyA inh, no call of its own (marks repeat the call); inhibition, %; compound at 20 µM; confirmation repeats;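 mean of two retest wells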
MT1-MMP act inh RFP – recorded beside MT1-MMP act inh, whose call it bears; RFP signal change, %; measured here: RFP expression control read;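 0 = vehicle wells; hits needed this value within 50% of zero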
* marks the source's active call; other numbers are inactive results; i = inactive; ? = inconclusive; / = no result given; + = active, no number. This is a subset; count on the stated rates, not on these rows.

SMILES	MT1-MMP act inh	MT1-MMP act inh RFP	eIF4H inh	CSC inhib	Rce1 inh	UUG fidelity	PABP polyA inh	Env fusion inh	others
COc1cc(OC)cc(C(=O)NN(CCC#N)C2=NS(=O)(=O)c3ccccc32)c1	-2	-2	4	-7	i	-2	-2	1
C=CCNc1oc(-c2cccc3ccccc23)nc1C#N	4	1	-3	14	i	-1	-4	/
COc1ccc(CCNC(=O)C2CCN(C(=O)c3ccccc3)CC2)cc1	/	/	-8	-4	i	/	-13	-12
CN1CCN(CCC(=O)Nc2ccc(Br)cc2)CC1	-1	3	-3	-5	i	/	-2	8
CN=C1SC(CC(=O)Nc2ccc(C(C)=O)cc2)C(=O)N1C (stereo not given)	2	8	/	-7	i	-14	/	/
Cc1ccc(CCC(=O)Nc2ccccc2F)s1	1	2	-1	2	i	-31	-3	-34
CC(C)OC(=O)Cn1nc(C(c2ccccc2)c2ccccc2)oc1=O	-3	-6	-9	4	i	-16	-6	-1
Cc1cc(C)c2[nH]c(C)c(CN3CCCCCC3)c(=O)c2c1	-6	-3	8	-12	i	-13	0	-96
Cc1oc(CC(C)C)c(CN2CCCC2)c1C(=O)O	-4	1	3	-4	i	-28	1	/
Cn1c(=O)n(C)c2cc(NC(=O)c3ccccc3NS(C)(=O)=O)ccc21	2	3	-9	11	i	-11	5	8
Cc1cccc(Oc2ncc(-c3ccc(Cl)cc3)cn2)c1	-1	2	0	-5	i	-8	1	/
CC1CCCCN1C(=S)NC(=O)c1cccs1 (stereo not given)	2	4	7	-8	i	/	1	-100
COC(=O)C1CC(O)CN1C(=O)Nc1ccccc1 (stereo not given)	0	5	0	-3	i	/	0	0
O=C(NC1(Cc2ccccc2)CCN(CCCc2ccccc2)C1=O)c1ccccc1 (stereo not given)	-9	-23	/	-10	/	-7	/	23
Cc1ccc(/C=C/C(=O)Nc2cccc3cccnc23)o1	-20	18	?	-1	i	/	7	/
OCCOc1cccc(CN2CCC(CO)(CCOc3ccccc3)CC2)c1	3	4	-4	-4	i	/	-12	3
Cc1cc(C)n(C(=O)CCC(=O)NCc2ccccc2)n1	7	5	-1	-3	/	-1	2	/
O=C(Oc1ccc(Br)cc1C(=S)N1CCOCC1)c1ccccc1	1	3	-3	12	i	-18	-1	-3
CC(=O)NS(=O)(=O)c1ccc(N=NN2CCCCCC2)cc1	-3	2	-2	-6	i	/	1	5
Cc1ccc(NC(=O)CSc2nccn(-c3ccc4c(c3)OCCO4)c2=O)cc1	3	2	/	-5	i	/	/	-13
Nn1c(SCc2csc(-c3ccccc3)n2)nnc1-c1cccs1	-4	-5	-1	-3	i	-19	-4	35
O=C1C2C3C=CC(CC3)C2C(=O)N1c1ccc(Cl)cc1Cl (stereo not given)	3	1	0	-17	i	-8	4	0
O=C(O/N=C\c1ccc(N2CCCCC2)c([N+](=O)[O-])c1)c1cccc(Cl)c1	3	-5	-4	17	i	/	2	/
CCOc1ccc(NC(=O)c2[nH]c(C)c(C(C)=O)c2C)cc1	-13	-3	-1	-3	i	-29	-4	5
Cc1ccccc1OCC1Cn2c(nc3c2c(=O)n(C)c(=O)n3C)O1 (stereo not given)	2	-8	9	-5	i	1	1	2

The last two compounds of the part before come first, to join the parts:
SMILES	MT1-MMP act inh	MT1-MMP act inh RFP	eIF4H inh	CSC inhib	Rce1 inh	UUG fidelity	PABP polyA inh	Env fusion inh	others
CCOc1ccc(NC(=O)c2[nH]c(C)c(C(C)=O)c2C)cc1	-13	-3	-1	-3	i	-29	-4	5
Cc1ccccc1OCC1Cn2c(nc3c2c(=O)n(C)c(=O)n3C)O1 (stereo not given)	2	-8	9	-5	i	1	1	2
Cc1ccc(CSc2nnc(-c3ccccn3)n2N)cc1	-1	-3	-1	2	i	-19	-2	-6
CC1C(=O)N(Cc2ccc(F)cc2)c2ccccc2N1C(=O)c1c(F)cccc1F (stereo not given)	0	-11	-14	17	i	-11	15	35
Cc1ccc(CONC(=O)/N=C/N(C)C)cc1	-2	3	6	5	i	2	-6	-42
CCCS(=O)(=O)N1CCCC(C(=O)NC2CCCCC2)C1 (stereo not given)	5	3	-2	-1	i	-11	3	/
CC(C)c1ccc(C(=O)Nc2ccc(CN3CCOCC3)cc2)cc1	4	-23	-6	16	i	-26	-1	20
O=C(COC(=O)CCc1c[nH]c2ccccc12)Nc1ccccc1C(F)(F)F	5	5	/	/	/	-28	/	7
COc1ccccc1C(=O)NN=C1CCN(Cc2ccccc2)CC1	-4	5	-4	5	i	/	12	11
C[n+]1ccccc1/C=C/c1ccc2ncccc2c1	-1	3	10	-1	i	-6	58*	-13	eIF4H inh retest=12;PABP polyA inh retest=80*
CCOC(=O)/C(=C/C=C1\Sc2cc(OCC)c(OCC)cc2N1CC)C(C)=O	-94	7	?	-5	i	/	48	4
Cc1ccc(C(=O)NCC(c2ccco2)N2CCc3ccccc3C2)cc1C (stereo not given)	-4	-4	/	23	i	-17	/	2
Cc1ccc(CN2CC(C(=O)OCc3ccccc3Cl)CC2=O)cc1 (stereo not given)	-3	1	/	-5	i	4	/	-3
COc1ccc(CN(C)C(=O)c2sccc2-c2ccccc2)c(OC)c1	2	-2	-7	1	i	16	6	3
CCN(CC(=O)Nc1c(F)cccc1F)C(=O)CNC(=O)C1CCCCC1	1	8	/	-1	i	-14	/	i
O=C(CNC(=O)c1ccc2c(c1)OCO2)NCCOc1ccc(Cl)cc1	1	1	/	8	/	-4	/	27
CCOC(=O)c1[nH]c2ccccc2c1NC(=O)CN(C)C	-1	0	15	-11	/	-9	-6	/
CNC(=O)c1[nH]cnc1C(=O)Nc1ccccc1C	2	0	-2	0	i	1	-6	/
COC(=O)c1cc(NC(=O)c2cccnc2)cc(C(=O)OC)c1	-1	1	0	-5	i	-20	1	-2
COc1ccc(NC(=O)Cn2nnc(-c3ccccc3)c2COc2ccc(C(C)=O)cc2)cn1	0	4	/	/	/	-5	/	15
COc1ccc2nnc(-c3ccc(C(F)(F)F)cc3)n2n1	2	-1	3	14	i	-29	6	-76
C/C(=N\O)C(=O)NCC1CCNCC1	2	2	-6	-11	i	-15	-7	/
Cc1ccc(CN(C(=O)Cn2nnc3ccccc32)C(C(=O)NCc2ccco2)c2ccc(C)o2)cc1 (stereo not given)	4	-13	2	-17	i	/	-32	/
CC(=O)Nc1ccc(OCC(O)Cn2nc(C)c(C(C)=O)c2C)cc1 (stereo not given)	2	2	-6	5	i	-17	-9	/
CN(c1ccc(OCC(=O)NCCc2ccccc2)cc1)S(=O)(=O)c1ccc(Cl)cc1	2	-2	/	/	i	-8	/	-5
COc1ccc(C(=O)Nc2cccc3nc(C)ccc23)cc1OC	1	4	-12	-6	i	-3	0	-23
CCOC(=O)Cn1c(N2CCCCCC2)nc2c1c(=O)[nH]c(=O)n2C	-1	-2	2	1	i	-11	11	/

5 entries already listed, sorted by number of heavy atoms, lowest first:
SMILES	MT1-MMP act inh	MT1-MMP act inh RFP	eIF4H inh	CSC inhib	Rce1 inh	UUG fidelity	PABP polyA inh	Env fusion inh	others
Cc1ccc(CONC(=O)/N=C/N(C)C)cc1	-2	3	6	5	i	2	-6	-42
Cc1ccc(CSc2nnc(-c3ccccn3)n2N)cc1	-1	-3	-1	2	i	-19	-2	-6
Cc1ccc(CN2CC(C(=O)OCc3ccccc3Cl)CC2=O)cc1 (stereo not given)	-3	1	/	-5	i	4	/	-3
CN(c1ccc(OCC(=O)NCCc2ccccc2)cc1)S(=O)(=O)c1ccc(Cl)cc1	2	-2	/	/	i	-8	/	-5
COc1ccc(NC(=O)Cn2nnc(-c3ccccc3)c2COc2ccc(C(C)=O)cc2)cn1	0	4	/	/	/	-5	/	15

A stretch from the list above, for reference:
SMILES	MT1-MMP act inh	MT1-MMP act inh RFP	eIF4H inh	CSC inhib	Rce1 inh	UUG fidelity	PABP polyA inh	Env fusion inh	others
Cc1ccc(CSc2nnc(-c3ccccn3)n2N)cc1	-1	-3	-1	2	i	-19	-2	-6
CC1C(=O)N(Cc2ccc(F)cc2)c2ccccc2N1C(=O)c1c(F)cccc1F (stereo not given)	0	-11	-14	17	i	-11	15	35

Molecules from the list above that have a furan ring, fused or not:
SMILES	MT1-MMP act inh	MT1-MMP act inh RFP	eIF4H inh	CSC inhib	Rce1 inh	UUG fidelity	PABP polyA inh	Env fusion inh	others
Cc1oc(CC(C)C)c(CN2CCCC2)c1C(=O)O	-4	1	3	-4	i	-28	1	/
Cc1ccc(/C=C/C(=O)Nc2cccc3cccnc23)o1	-20	18	?	-1	i	/	7	/
Cc1ccc(C(=O)NCC(c2ccco2)N2CCc3ccccc3C2)cc1C (stereo not given)	-4	-4	/	23	i	-17	/	2
Cc1ccc(CN(C(=O)Cn2nnc3ccccc32)C(C(=O)NCc2ccco2)c2ccc(C)o2)cc1 (stereo not given)	4	-13	2	-17	i	/	-32	/

(list continues)
SMILES	MT1-MMP act inh	MT1-MMP act inh RFP	eIF4H inh	CSC inhib	Rce1 inh	UUG fidelity	PABP polyA inh	Env fusion inh	others
Cc1c(CCC(=O)NCCCn2ccnc2)c(=O)oc2cc3occ(C(C)(C)C)c3cc12	6	1	-13	17	i	-11	-11	-3
O=C(CN1C(=O)CCS(=O)(=O)c2ccccc21)NCc1ccc2c(c1)OCO2	2	3	8	/	i	/	-5	/
O=C(Nc1ccccc1)C1C2CCCCC21 (stereo not given)	1	0	5	-4	i	6	8	-5
CCCN1Cc2cccc(C(=O)NC3CCCC3)c2C1=O	1	3	8	15	i	-1	14	/
OC(CNCCCN1CCCCC1)COc1ccccc1 (stereo not given)	-1	1	4	4	i	22	33	/
O=C1CN(C(=O)c2ccco2)C(c2ccc(F)cc2)c2cc(Cl)ccc2N1 (stereo not given)	-8	-1	/	/	i	-1	/	20
O=C(Nc1cccc(F)c1)c1ccccc1-c1ccccc1	5	1	-12	-8	i	/	32	/
COc1ccc(C2C3=C(CC(C)(C)CC3=O)Nc3n[nH]c(C)c32)cc1 (stereo not given)	4	3	-4	-10	+	-23	-1	/
CC1=NN(c2cccc(C(=O)O)c2)C(=O)/C1=C\C=C\c1ccco1	-1	1	95	4	i	-9	4	/	eIF4H inh retest=1;PABP polyA inh retest=9
Cc1cccc(-n2ncc(C#N)c2-n2cccc2)c1	3	8	6	-10	i	-9	-6	-13
COc1ccc2oc(C(=O)Nc3ccccn3)c(C)c2c1	-6	-3	6	4	i	-49	7	-404
CCc1cc2c3c(c1)/C(=C1/SC(N)=NC1=O)C(=O)N3C(C)(C)C=C2C	-3	1	-5	5	i	0	-5	-3
COc1cccc(NC(=S)NNC(=O)Cn2nc(C(F)(F)F)cc2C)c1	5	6	0	1	i	-1	1	-1
O=C(Nc1nnc(SCc2ccccc2F)s1)c1ccco1	0	4	3	-7	i	/	4	1
CC(C)(C)c1ccc(/C=N/OCC(=O)NCc2ccccc2)cc1	0	-4	3	6	i	0	4	-14
Cc1cccc(N2CCN(C(=O)c3ccc(N4CCCC4=O)cc3)CC2)c1C	2	-9	-10	13	i	-7	8	/
Cc1c(C)n(Cc2ccc(F)cc2)c2ccc(C(=O)NCCCN3CCOCC3)cc12	-2	-4	-4	69	i	-14	-6	4
CC(Oc1ccc2c3c(c(=O)oc2c1)CCC3)C(=O)NCc1ccccn1 (stereo not given)	-2	-2	-8	7	i	-11	11	-3
Oc1ccc2cccnc2c1	-3	-4	14	2	i	-7	21	/
O=[N+]([O-])c1ccccc1S(=O)(=O)N1CCN(C2CCN(Cc3ccccc3)CC2)CC1	1	0	13	11	i	-8	13	8
